Lassa entry inh: blocks Lassa virus binding to or entry into cells; Potency, µM (series often up to 37.9 µM), inactives show at the top dose activity change, negative = inhibition, most hits filed as inhibitors; Lassa virus pseudotype entry inhibition, cell reporter; control for the full effect not named in the record; hit rate 1.2% among 300,000; AID 540256; active means well fitted inhibition curve with a large enough effect; inconclusive means small, poorly fitted or top-dose-only effect, or effect the other way; inactive means flat fitted curve, though single readings scatter; tested in HEK293 cells; further: on the % scale 0 is the no-effect control and ±100 the full control effect; nearly all actives have a fitted effect of over 50% in size; luciferase read-out
RE007 growth inh: less growth of the S. pombe RE007 Vpr strain. AID 651644. hit rate 0.21% among 360,000. Potency, µM (top dose mostly 92.2 µM), without a hit: at the top dose activity change, negative = less growth. S. pombe RE007 Vpr strain, BacTiter-Glo ATP luminescence, 24 h; control for the full effect not named in the record; active = well fitted falling curve with a large enough effect; inconclusive = small, poorly fitted or top-dose-only effect; inactive = no such curve, though single readings can be large or run the other way;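 further: on the % scale 0 is the no-effect control and ±100 the full control effect; nearly all actives have a fitted effect of over 50% in size; the assay follows cell death caused by Vpr and the record does not say whether a fall means rescue or toxicity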
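Fission yeast strain RE007, carrying one chromosomally integrated HIV-1 vpr copy, was seeded at OD 0.01 in PMG+AL medium with 23 nL pinned compound. After 24 h at 30 °C and 99% humidity, viability was read by BacTiter-Glo luminescence.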
NS1 inh: blocks influenza NS1 protein function; S. cerevisiae slowed by influenza A NS1, growth recovery by OD600; Potency, µM (top dose mostly 46.1 µM), without a hit: top-dose activity, positive = more growth; hit rate 0.4% among 270,000; AID 2326; further: actives are rising curves; nearly all actives have a fitted effect of over 50% in size
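S. cerevisiae expressing influenza A NS1, grown in glucose, washed, then diluted 1:100 into pH 6.0 -URA galactose medium with 23 nl compound. Growth recovery read as OD600; NS1-free strain serves as control.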
Cruzain noTriton: blocks cruzain activity in detergent-free assay; purified cruzain, Z-FR-AMC fluorescence, no detergent; Potency, µM, for the others: max response, negative = inhibition, hits mostly inhibitors; hit rate 2.3% among 200,000; AID 1476; active means well fitted curve in the direction sought with a large enough effect; inconclusive means small, poorly fitted or top-dose-only effect, or another doubt; inactive means no such curve, though single readings can be large; an effect the other way counts as inactive or inconclusive;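 further: plate controls were enzyme without inhibitor for no effect and buffer without enzyme for full effect; nearly all actives have a fitted effect of over 40% in size; top concentration of the series not given in the record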
Target sequence (P25779 123-467 limits assumed): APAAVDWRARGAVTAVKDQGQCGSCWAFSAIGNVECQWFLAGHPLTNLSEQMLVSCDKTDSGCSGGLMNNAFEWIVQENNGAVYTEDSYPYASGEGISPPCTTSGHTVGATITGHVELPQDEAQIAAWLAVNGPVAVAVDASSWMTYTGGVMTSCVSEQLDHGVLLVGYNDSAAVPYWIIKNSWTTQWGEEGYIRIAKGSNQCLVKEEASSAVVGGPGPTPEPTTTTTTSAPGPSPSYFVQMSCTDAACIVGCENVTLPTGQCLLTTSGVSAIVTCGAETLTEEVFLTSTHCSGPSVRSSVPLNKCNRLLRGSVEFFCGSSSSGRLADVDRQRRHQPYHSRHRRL
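Purified cruzain at 1.5 nM, pre-incubated 15 min with compound at room temperature in 100 mM sodium acetate pH 5.5, 5 mM DTT, 0.00005% Triton X-100. Reaction started with 2 uM Z-FR-AMC; AMC fluorescence increase over 60 s gives rate.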
MARV entry inh: inhibitors of Marburg virus binding or cell entry; Marburg virus pseudotyped entry inhibition, cell reporter; control for the full effect not named in the record; about a third of the inactives were read at about 46 µM; Potency, µM (series often up to 37.8 µM), without a hit: at the top dose activity change, negative = inhibition, actives largely listed as inhibitors; hit rate 1.8% among 300,000; active = well fitted inhibition curve with a large enough effect; inconclusive = small, poorly fitted or top-dose-only effect, or effect the other way; inactive = flat fitted curve, though single readings scatter; tested in HEK293 cells; about a fifth of its hits are not listed in these tables; further: on the % scale 0 is the no-effect control and ±100 the full control effect; luciferase read-out
StopGo reporter: FMDV 2A StopGo reporter, luciferase signal | hit rate 1.2% among 410,000 | Potency, µM (highest dose often 57.9 µM), inactives show at the top dose signal change, negative = less light | human cells with a luciferase reporter of 2A StopGo recoding; control for the full effect not named in the record; active = well fitted falling curve with a large enough effect; inconclusive = small, poorly fitted or top-dose-only effect; inactive = no such curve, though single readings can be large or run the other way; tested in HEK293T cells; further: on the % scale 0 is the no-effect control and ±100 the full control effect; nearly all actives have a fitted effect of over 45% in size; luciferase light after 4 h
SARS PLpro yeast: SARS-CoV PLP inhibition in yeast; Potency, µM (top dose mostly 32.9 µM), for inactives: at the top dose activity, positive = growth rescue; hit rate 0.19% among 330,000; S. cerevisiae expressing SARS-CoV PLpro, growth rescue; control for the full effect not named in the record; AID 485353; further: 0% is about no effect; nearly all actives have a fitted effect of over 55% in size; growth read by luminescence after 48 h
Cruzain inh Det: cruzain (T. cruzi) inhibition with detergent | P25779 | purified cruzain, Z-FR-AMC fluorescence, 0.01% Triton | Potency, µM, without a hit: max response, negative = inhibition, most hits filed as inhibitors | hit rate 0.43% among 200,000 | AID 1478; active means well fitted curve in the direction sought with a large enough effect; inconclusive means small, poorly fitted or top-dose-only effect, or another doubt; inactive means no such curve, though single readings can be large; an effect the other way counts as inactive or inconclusive;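 further: plate controls were neutral wells for no effect and buffer without enzyme for full effect; nearly all actives have a fitted effect of over 40% in size; top concentration of the series not given in the record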
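15 min RT preincubation of 1.5 nM cruzain with compound, then 2 uM Z-FR-AMC added; kinetic AMC fluorescence, 60 s delta. Triton X-100 0.01%, pH 5.5.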
* marks the source's active call; other numbers are inactive results; ? = inconclusive; . = not tested or not shown; & = joins results of further samples; [ ] = another dose, or the depositor's remark. Unless noted, the call rests on the fitted dose curve; in most records, active means well fitted rising curve with a large enough effect; inconclusive means small, poorly fitted or top-dose-only effect; inactive means no such curve, though single readings can be large or run the other way. Potency means the concentration at half of the fitted maximal effect.

#	Structure	Lassa entry inh	RE007 growth inh	NS1 inh	Cruzain noTriton	MARV entry inh	StopGo reporter	SARS PLpro yeast	Cruzain inh Det
1	CC(=O)O[C@H]1CC(C)(C)C(=C=C/C(C)=C/C=C/C(C)=C/C=C/C=C(C)/C=C/C=C(\C)C(=O)C[C@@]23O[C@]2(C)C[C@@H](O)CC3(C)C)[C@](C)(O)C1	.	-15%	-3%	.	.	-21%	1%	.
2	CN1C(=O)NC(=O)/C(=C/c2ccc([N+](=O)[O-])s2)C1=O	-10%[46.1 µM]	?	-63%	.	0%[46.1 µM]	?	-7%	.
3	CCOC(=O)c1cc2n(c1N)-c1ccccc1C2=O	14%	9%	-7%	-2%	-11%	28%	-6%	-8.6%
4	CN(CC(=O)Nc1ccccc1Cl)C(=O)c1cccc(S(=O)(=O)N2CCN(Cc3ccccc3)CC2)c1	?	19%	.	.	?	?	9%	.
5	Cc1ccc(S(=O)(=O)N[C@@H](CC(C)C)C(=O)N2CCC(C(=O)N[C@H](C(=O)O)C(C)C)CC2)cc1	.	3%	-4%	.	.	-16%	0%	.
6	COc1ccccc1N1CCN(c2ncnc3c2nnn3C)CC1	?	.	.	-2%	.	-10%	.	0.2%
7	O=C(Nc1ccnn1C1CCN(Cc2ccccc2)CC1)C1CCOC1 (configuration not stated)	12%	20%	16%	.	26%	-1%	-4%	.
8	Cc1cc(C)c([N+](=O)[O-])cc1NC(=O)CCS(=O)(=O)c1ccccc1	.	19%	1%	.	.	12%	0%	.
9	Cc1c(C(=O)NCc2ccc(F)cc2)sc2nc3n(c(=O)c12)CCC3	9%[46.1 µM]	.	.	19%	.	-7%	.	-1.3%
10	CC(=O)c1ccc(N2CCN(S(=O)(=O)c3ccc4c(c3)CC(C)N4C(C)=O)CC2)cc1 (configuration not stated)	?	2%	7%	.	?	?	8%	.
11	COc1ccccc1-n1cnc2cc(NS(=O)(=O)c3ccccc3)ccc21	-17%	-7%	-30%	?	-30%	-18%	0%	-0.6%
12	Oc1oc(-c2ccco2)nc1C=Nc1cccc(Cl)c1	4%	-8%	-49%	-17%	-3%&-3%	-2%	-1%	-11%
13	Cc1cccc2cc(C(c3nnnn3CC3CCCO3)N3CCOCC3)c(=O)[nH]c12 (configuration not stated)	5%	23%	-10%	-12%	2%	-4%	-1%	-5.9%
14	COc1cc(OC)cc(C(=O)Nc2ccc(N(C)C)c3ccccc23)c1	.	1%	15%	.	.	-5%	-6%	.
15	Fc1ccc(CN2CCCCCCC2)cc1	0%	-13%	3%	3%	8%	-21%	4%	-0.4%
16	CCOC(=O)c1c(NC(=O)COC(=O)CCOc2ccccc2C)sc(C(=O)NC)c1C	14%	-10%	.	.	-9%	-29%	-16%	.
17	CCOc1ccc(CCNc2cc(C)nc3ncnn23)cc1OCC	6%	9%	?	-7%	-17%	?	-22%	-1.4%
18	CCCSc1nnc(Cc2cc(=O)[nH]c(=O)[nH]2)n1-c1cc(C)ccc1C	-5%	-7%	0%	7%	?	-26%	1%	3.4%
19	CN(c1ccc(Cl)cc1)S(=O)(=O)c1nnc(NC(=O)c2ccco2)s1	-12%[46.1 µM]	-8%	-10%	3%	.	-2%&-10%	-3%	-2.2%
20	Cc1sc(NC(=S)NC(=O)c2ccccc2)c(C#N)c1C	0%	6%	.	.	?	62%[activator]	.	.
21	CCOC(=O)CSc1nncc2ccc(OC)c(OC)c12	4%	-1%	-4%	-4%	?	-6%	2%	1.2%
22	CCCCn1c(SCC(=O)N2CCC(C)CC2)nc2cc(S(N)(=O)=O)ccc21	8%	-4%	-2%	-2%	6%	-5%	?	9.5%
23	Cc1ccc(CCNc2nc3ccccc3c3nc(-c4ccccc4)nn23)cc1	.	.	.	10%	7%[46.1 µM]	-6%	.	0.7%
24	O=c1[nH]c(=S)[nH]c(O)c1N=Nc1ccc(S(=O)(=O)N2CCOCC2)cc1	.	12%	-1%	.	.	4%	-2%	.
25	O=C1c2ccccc2C2=Nc3ccccc3SC(c3ccccc3F)C12 (configuration not stated)	21µM*	-28%	24%	-29%	?	-73%	-37%	-2.4%
26	CCCCOC(=O)Nc1nccs1	27%	-6%	-3%	4%	4%	.	2%	1.3%
27	Cc1ccc(C)c(S(=O)(=O)NCc2ccc(C(=O)N3CCCCCC3)cc2)c1	-22%	19%	-19%	-2%	?	15%	7%	-3.1%
28	Nc1cc(=O)[nH]c(=O)n1-c1ccc(Cl)cc1	3%	2%	-3%	.	7%&7%	-9%	0%	.
29	COc1cc(/C=C2\CCC(C3CCCC3)C2=O)cc(OC)c1OC (configuration not stated)	0%[46.1 µM]	6%	2%	.	?	15%	1%	.
30	O=C1CCCc2c1cc(-c1ccccc1)n2-c1ccc(O)cc1	?	16%	16%	3%	-20%	-28%	23%	-6.7%
31	Cc1ccc(O)c(CNn2cnnc2)c1	1%	-4%	9%	-9%	3%	.	9%	-0.2%
32	CCOC(=O)Cc1c(C)nc2c(C#N)c[nH]n2c1=O	27%[14.3 µM]	16%	9%	1%	-3%	-17%	-1%	-0.5%
33	Cn1cc(Br)c(-c2cccc(NC(=O)CCCC(=O)O)c2)n1	30%[46.1 µM]	13%	7%	.	0%[46.1 µM]	-4%	0%	.
34	Cc1cc(C)nc(-n2nc(C)c(Br)c2Nc2ccc(Br)cc2)n1	-12%	-1%	7%	-13%	-42%	8%	-1%	2.1%
35	O=[N+]([O-])c1ccc(N=NNc2ccc([N+](=O)[O-])cc2)cc1	-8%[46.1 µM]	15%	.	.	?	18%	.	.
36	O=C1CCCc2c1oc1c2CCCC1	11%[46.1 µM]	-4%	.	.	0%[46.1 µM]	-10%	.	.
37	Cc1ccc(CNS(=O)(=O)CCNC(=O)c2ccc3c(c2)OCO3)cc1	11%[46.1 µM]	1%	.	.	-12%	0%	-4%	.
38	c1cnc2nc(-c3ccc4c(c3)OCO4)cn2c1	-29%	22%	-4%	.	?	45%[activator]	-3%	.
39	CCCCCC[N+](C)(C)CCSSCC[N+](C)(C)CCCCCC	.	?	-5%	.	.	3%	-1%	.
40	Cc1ccc(N2CCCCn3c2nc2c3c(=O)n(CC(=O)O)c(=O)n2C)cc1	4%	-1%	7%	4%	15%	5%	-3%	-1.5%
41	O=C(OCCN1CCCC1)C1(c2ccccc2)CCCC1	-4%	-11%	-4%	-12%	?	-14%	0%	8.6%
42	Cc1ccc(CN(C(=O)COc2ccccc2[N+](=O)[O-])c2ccccn2)cc1	-9%[46.1 µM]	.	.	-3%	-1%[46.1 µM]	8%	.	-4.6%
43	CNc1c(NS(=O)(=O)c2cc(OC)ccc2OC)c(=O)oc2ccccc12	-6%	-3%	7%	.	2%[46.1 µM]	5%	3%	.
44	Cn1ccnc1SCC(=O)c1c[nH]c2ccccc12	-21%[46.1 µM]	?	2%	.	?	8%	0%	.
45	CCN(C(=O)CSc1nnnn1C)c1c(N)n(Cc2ccccc2)c(=O)[nH]c1=O	9%[46.1 µM]	-13%	7%	.	9%[46.1 µM]	-10%	0%	.
46	COC(=O)c1nnn(CC(=O)NC(=O)Nc2ccc(F)cc2)c1C(=O)OC	2%[46.1 µM]	-6%	5%	-5%&0%	?	-17%&-17%	?	-2.1%&0.5%
47	O=C1C2CC=C(Cl)CC2C(=O)N1CCc1c[nH]c2ccccc12 (configuration not stated)	-2%	4%	-32%	-3%	10%	54%[activator]	-7%	-0.8%
48	CN(Cc1ccccc1)S(=O)(=O)c1ccc(Cl)nc1	3%	-9%	5%	-12%	0%	-8%	5%	4.1%
49	Cc1ccc(-c2csc3ncnc(SCC(=O)Nc4nnc(C)s4)c23)cc1	3%	17%	4%	10%	?	-1%	-3%	-3.3%
50	Cc1nc(=O)c(-c2ccccc2)c(C)n1-c1ccc(O)cc1	7%	-8%	-3%	-2%	14%	6%	-3%	7.7%

The results go on.
#	Structure	Lassa entry inh	RE007 growth inh	NS1 inh	Cruzain noTriton	MARV entry inh	StopGo reporter	SARS PLpro yeast	Cruzain inh Det
51	NS(=O)(=O)c1ccc(NC(=O)C2Cc3ccccc3C(=O)O2)cc1 (configuration not stated)	.	-1%	1%	.	.	-4%	3%	.
52	Cc1[nH]c2ccccc2c1C(=O)CSC(=S)N1CCOCC1	4%	-2%	4%	.	?	0%	2%	.
53	COc1cccc(NC(=O)Nc2cccc(C(=O)O)c2)c1	?	5%	5%	.	.	?	-1%	.
54	CCN(CC)N=Nc1[nH]nc2nc(C)cc(C)c12	-12%	0%	-55%	2%	11%	23%	-25%	-6.6%
55	CC(CCc1ccccc1)NC(=O)COC(=O)c1cccs1 (configuration not stated)	2%[46.1 µM]	8%	-10%	.	0%[46.1 µM]	-11%	0%	.
56	COc1cc(C(=O)NCCc2csc3nc(-c4ccccc4C)nn23)cc(OC)c1OC	3%[46.1 µM]	.	.	?	.	?	.	4.3%
57	CCOC(=O)c1c(C)c(C(=O)N2CCN(C(=O)c3ccco3)CC2)c(C)n1C	4%	16%	-12%	11%	0%	14%	1%	2.3%
58	O=C(COc1cccc2c1CCNC2=O)Nc1ccc(F)cc1	1%	3%	.	.	24%	1%	9%	.

For reference, some entries already given:
#	Structure	Lassa entry inh	RE007 growth inh	NS1 inh	Cruzain noTriton	MARV entry inh	StopGo reporter	SARS PLpro yeast	Cruzain inh Det
51	NS(=O)(=O)c1ccc(NC(=O)C2Cc3ccccc3C(=O)O2)cc1 (configuration not stated)	.	-1%	1%	.	.	-4%	3%	.
52	Cc1[nH]c2ccccc2c1C(=O)CSC(=S)N1CCOCC1	4%	-2%	4%	.	?	0%	2%	.
53	COc1cccc(NC(=O)Nc2cccc(C(=O)O)c2)c1	?	5%	5%	.	.	?	-1%	.

Screening results deposited in PubChem BioAssay by National Center for Advancing Translational Sciences (NCATS).
